Screening data deposited in PubChem BioAssay by Southern Research Institute.
total CFTR = total CFTR protein upregulators, primary screen, cell-based, HeLa F508del-CFTR, immunofluorescence, viability (AID 1224863). actives 0.1% (n = 10,000). HeLa F508del-CFTR, immunofluorescence total CFTR, 24 h; by the record results were divided by relative cell number; some inactives read as strong as hits. calls, or highest fold increase where a dose series was run; in the data nearly all actives have a first-pass fold increase above 1.5; a few of its hits are not listed in these tables;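 further: total CFTR protein by anti-CFTR immunofluorescence in fixed cells; first pass at 25 µM or 10 µg/mL by library and series up to twice that; 1 = untreated cells; first-pass hits also needed half or more of the cells alive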
total CFTR fold 25 µM = further read-out of total CFTR, marked with its call; fold increase; measured here: primary screen single dose 25 uM; library dosed in µM
total CFTR fold 10 ug/mL = also measured in total CFTR; calls as there; fold increase; measured here: primary screen 10 ug/mL
total CFTR viability 25 µM = also measured in total CFTR; calls as there; viability, %; measured here: primary viability 25 uM; library dosed in µM;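 0% = killed and 100% = untreated cells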
total CFTR viability 10 ug/mL = recorded beside total CFTR, whose call it bears; viability, %; measured here: primary viability 10 ug/mL;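 0% = killed and 100% = untreated cells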
* hit, by the source's call; & = joins results of further samples.

For N#Cc1ncn(CCCn2cnc(C#N)n2)n1 the results were total CFTR inactive, total CFTR fold 10 ug/mL 1.06 and total CFTR viability 10 ug/mL 92.0.
Screening COc1ccc(CNCC2CCCCC2)cc1 returned total CFTR inactive, total CFTR fold 10 ug/mL 0.96 and total CFTR viability 10 ug/mL 95.0.
For NC(=O)c1cc[n+](CC2=C(C(=O)[O-])N3C(=O)[C@@H](NC(=O)Cc4cccs4)[C@H]3SC2)cc1 the results were total CFTR inactive, total CFTR fold 25 µM 1.03 and total CFTR viability 25 µM 95.0.
NC(=O)C1CCCN(C(=O)c2cc3c(s2)CCCCC3)C1 (centres undefined) was read as total CFTR inactive, total CFTR fold 10 ug/mL 0.89 and total CFTR viability 10 ug/mL 82.0.
For Cc1nc2ccccc2nc1NCCC1CCCO1 (centres undefined) the results were total CFTR inactive, total CFTR fold 10 ug/mL 0.99 and total CFTR viability 10 ug/mL 89.0.
`Cc1noc(C)c1S(=O)(=O)N1CCN(Cc2coc(-c3cccs3)n2)CC1` gave total CFTR inactive, total CFTR fold 10 ug/mL 0.93 and total CFTR viability 10 ug/mL 99.0.
C=CCN(CC=C)C(=O)COC(=O)c1nccnc1N was read as total CFTR inactive, total CFTR fold 10 ug/mL 1.02 and total CFTR viability 10 ug/mL 90.0.
CCOc1ccc(Br)cc1S(=O)(=O)N1c2cccc3cccc(c23)S1(=O)=O was read as total CFTR inactive, total CFTR fold 10 ug/mL 1.13 and total CFTR viability 10 ug/mL 85.0.
For O=C(NCCCN1CCN(c2ncccn2)CC1)N1CCN(c2ncccn2)CC1 the results were total CFTR inactive, total CFTR fold 10 ug/mL 1.1 and total CFTR viability 10 ug/mL 102.0.
For CC(Sc1nnnn1Cc1ccco1)c1nc(N)nc(Nc2ccccc2)n1 (centres undefined) the results were total CFTR inactive, total CFTR fold 10 ug/mL 1.01 and total CFTR viability 10 ug/mL 97.0.

The final 3 compounds of the part before are carried over, then new ones follow.
CCOc1ccc(Br)cc1S(=O)(=O)N1c2cccc3cccc(c23)S1(=O)=O was read as total CFTR inactive, total CFTR fold 10 ug/mL 1.13 and total CFTR viability 10 ug/mL 85.0.
For O=C(NCCCN1CCN(c2ncccn2)CC1)N1CCN(c2ncccn2)CC1 the results were total CFTR inactive, total CFTR fold 10 ug/mL 1.1 and total CFTR viability 10 ug/mL 102.0.
For CC(Sc1nnnn1Cc1ccco1)c1nc(N)nc(Nc2ccccc2)n1 (centres undefined) the results were total CFTR inactive, total CFTR fold 10 ug/mL 1.01 and total CFTR viability 10 ug/mL 97.0.
For c1ccc(-c2nnc(CSc3nncn3Cc3ccco3)o2)cc1 the results were total CFTR inactive, total CFTR fold 10 ug/mL 1.04 and total CFTR viability 10 ug/mL 93.0.
For CCCc1nc(SC(C)C(=O)Nc2cc(C)no2)n[nH]1 (centres undefined) the results were total CFTR inactive, total CFTR fold 10 ug/mL 1.03 and total CFTR viability 10 ug/mL 94.0.
Screening CC1CCC2(CC1)NC(=O)N(CN(Cc1cccnc1)C1CC1)C2=O (centres undefined) returned total CFTR inactive, total CFTR fold 10 ug/mL 1.01 and total CFTR viability 10 ug/mL 96.0.
Screening COC(=O)C(C)N=C1NS(=O)(=O)c2ccccc21 (centres undefined) returned total CFTR inactive, total CFTR fold 10 ug/mL 1.01 and total CFTR viability 10 ug/mL 86.0.
Screening Cc1noc(COC(=O)c2c[nH]c3ccccc23)n1 returned total CFTR inactive, total CFTR fold 10 ug/mL 0.97 and total CFTR viability 10 ug/mL 92.0.
`C[C@@H](C(=O)O)c1ccc(-c2ccccc2)c(F)c1` gave total CFTR inactive, total CFTR fold 25 µM 0.97 and total CFTR viability 25 µM 95.0.
`CNc1c(F)cccc1F` gave total CFTR inactive, total CFTR fold 10 ug/mL 0.91 and total CFTR viability 10 ug/mL 96.0.
For C[C@]12C=CC(=O)C=C1CC[C@@H]1[C@@H]2C(=O)C[C@@]2(C)[C@H]1CC[C@]2(O)C(=O)CO the results were total CFTR inactive, total CFTR fold 25 µM 1.09&1.04 and total CFTR viability 25 µM 94.0&100.0.
`O=C(NCC1CCS(=O)(=O)C1)c1csc(-c2ccsc2)n1` (centres undefined) gave total CFTR inactive, total CFTR fold 10 ug/mL 1.05 and total CFTR viability 10 ug/mL 96.0.
CCCCCCOC(=O)/N=C(\N)c1ccc(NCc2nc3cc(C(=O)N(CCC(=O)OCC)c4ccccn4)ccc3n2C)cc1 was read as total CFTR inactive, total CFTR fold 25 µM 1.35 and total CFTR viability 25 µM 91.0.
`Cn1cnc([N+](=O)[O-])c1NCC1CCN(c2ccccc2)C1` (centres undefined) gave total CFTR inactive, total CFTR fold 10 ug/mL 0.99 and total CFTR viability 10 ug/mL 87.0.
Screening CCN(Cc1ccc(Cl)s1)CN1C(=O)C(=O)N(C(C)C)C1=O returned total CFTR inactive, total CFTR fold 10 ug/mL 1.03 and total CFTR viability 10 ug/mL 97.0.
Fc1ccc(C(c2ccc(F)cc2)N2CCN(C/C=C/c3ccccc3)CC2)cc1 was read as total CFTR inactive, total CFTR fold 25 µM 0.91&0.89 and total CFTR viability 25 µM 100.0&86.0.
`CCCCCCCCCCCCCCCCCCCCCCO` gave total CFTR inactive, total CFTR fold 25 µM 1.14 and total CFTR viability 25 µM 90.0.
NC(=O)Cn1c(-c2ccco2)n[nH]c1=S was read as total CFTR inactive, total CFTR fold 10 ug/mL 1.11 and total CFTR viability 10 ug/mL 89.0.
CCCCN=C1NN=C(c2[nH]c(C)c(C(=O)OCC)c2C)CS1 was read as total CFTR inactive, total CFTR fold 10 ug/mL 1.07 and total CFTR viability 10 ug/mL 95.0.
CCN(C(=O)COC(=O)c1cc(Br)c(Br)s1)C1CCS(=O)(=O)C1 (centres undefined) was read as total CFTR inactive, total CFTR fold 10 ug/mL 0.97 and total CFTR viability 10 ug/mL 105.0.
`COc1ccc2c(c1)C(=O)N(c1ccccc1OC)C(=O)C2(Cc1ccccc1F)Cc1ccccc1F` gave total CFTR inactive, total CFTR fold 10 ug/mL 1 and total CFTR viability 10 ug/mL 81.0.
For CONC(=O)c1cc(-c2ccco2)nc2onc(C)c12 the results were total CFTR inactive, total CFTR fold 10 ug/mL 1.11 and total CFTR viability 10 ug/mL 93.0.
Screening Cn1c(-c2ccccc2F)nn(CN2CCCC2c2ccccc2)c1=S (centres undefined) returned total CFTR inactive, total CFTR fold 10 ug/mL 1.04 and total CFTR viability 10 ug/mL 107.0.

Overlap with the part before: three compounds, followed by the next part.
`COc1ccc2c(c1)C(=O)N(c1ccccc1OC)C(=O)C2(Cc1ccccc1F)Cc1ccccc1F` gave total CFTR inactive, total CFTR fold 10 ug/mL 1 and total CFTR viability 10 ug/mL 81.0.
For CONC(=O)c1cc(-c2ccco2)nc2onc(C)c12 the results were total CFTR inactive, total CFTR fold 10 ug/mL 1.11 and total CFTR viability 10 ug/mL 93.0.
Screening Cn1c(-c2ccccc2F)nn(CN2CCCC2c2ccccc2)c1=S (centres undefined) returned total CFTR inactive, total CFTR fold 10 ug/mL 1.04 and total CFTR viability 10 ug/mL 107.0.
Cc1cc(C(=O)COC(=O)c2cc(Br)c(Br)s2)c(C)n1CC1CCCO1 (centres undefined) was read as total CFTR inactive, total CFTR fold 10 ug/mL 1.02 and total CFTR viability 10 ug/mL 111.0.
C#CCNC(=O)CN1CCCCCC1=O was read as total CFTR inactive, total CFTR fold 10 ug/mL 1.15 and total CFTR viability 10 ug/mL 106.0.
`O=C(CN1C(=O)COc2ccc([N+](=O)[O-])cc21)NC12CC3CC(CC(C3)C1)C2` gave total CFTR inactive, total CFTR fold 10 ug/mL 0.93 and total CFTR viability 10 ug/mL 90.0.
Screening Cc1nn(Cc2ccccc2)c(C)c1CNCc1cnn(-c2ccccc2)c1 returned total CFTR inactive, total CFTR fold 10 ug/mL 0.8 and total CFTR viability 10 ug/mL 77.0.
`CC(Cc1ccco1)NC(=O)C1CCC1` (centres undefined) gave total CFTR inactive, total CFTR fold 10 ug/mL 0.94 and total CFTR viability 10 ug/mL 92.0.
For O=[N+]([O-])c1cccc2ccc(/C=C/c3c(Cl)cccc3Cl)nc12 the results were total CFTR inactive, total CFTR fold 10 ug/mL 0.92 and total CFTR viability 10 ug/mL 85.0.
`O=C(OCc1nccn1C(F)F)c1cc([N+](=O)[O-])ccc1N1CCCC1` gave total CFTR inactive, total CFTR fold 10 ug/mL 1.15 and total CFTR viability 10 ug/mL 94.0.
`COCCCNC(=O)Cc1c(C)nn(C)c1C` gave total CFTR inactive, total CFTR fold 10 ug/mL 0.95 and total CFTR viability 10 ug/mL 81.0.
CC(=O)OCC(=O)[C@@]1(O)[C@@H](C)CC2C3CCC4=CC(=O)C=C[C@]4(C)[C@@]3(F)[C@@H](O)C[C@@]21C (some centres undefined) was read as total CFTR inactive, total CFTR fold 25 µM 1.23 and total CFTR viability 25 µM 82.0.
For Cc1csc(NC(=O)Cc2c(C)nc(C)[nH]c2=O)n1 the results were total CFTR inactive, total CFTR fold 10 ug/mL 1 and total CFTR viability 10 ug/mL 96.0.

3 compounds out of the list, ordered by SMILES length, largest number first.
For NC(=O)c1cc[n+](CC2=C(C(=O)[O-])N3C(=O)[C@@H](NC(=O)Cc4cccs4)[C@H]3SC2)cc1 the results were total CFTR inactive, total CFTR fold 25 µM 1.03 and total CFTR viability 25 µM 95.0.
CCN(C(=O)COC(=O)c1cc(Br)c(Br)s1)C1CCS(=O)(=O)C1 (centres undefined) was read as total CFTR inactive, total CFTR fold 10 ug/mL 0.97 and total CFTR viability 10 ug/mL 105.0.
CCCCN=C1NN=C(c2[nH]c(C)c(C(=O)OCC)c2C)CS1 was read as total CFTR inactive, total CFTR fold 10 ug/mL 1.07 and total CFTR viability 10 ug/mL 95.0.

More structures follow:
Screening Fc1cccc(-n2nnnc2SCc2nccn2C(F)F)c1 returned total CFTR inactive, total CFTR fold 10 ug/mL 1 and total CFTR viability 10 ug/mL 94.0.
For CC1CN(S(=O)(=O)N2CCN(Cc3nc(N)c4ccccc4n3)CC2)CC(C)O1 (centres undefined) the results were total CFTR inactive, total CFTR fold 10 ug/mL 1.31 and total CFTR viability 10 ug/mL 97.0.
`CNCC[C@H](Oc1cccc2ccccc12)c1cccs1` gave total CFTR inactive, total CFTR fold 25 µM 0.79 and total CFTR viability 25 µM 68.0.
c1ccc(CN2CCN(Cc3c(C45CC6CC(CC(C6)C4)C5)nc4ccccn34)CC2)cc1 was read as total CFTR inactive, total CFTR fold 10 ug/mL 1.04 and total CFTR viability 10 ug/mL 99.0.
Screening Cc1ccc(C)c(OCCSC2=NC3CCCCC3N2)c1 (centres undefined) returned total CFTR inactive, total CFTR fold 10 ug/mL 1 and total CFTR viability 10 ug/mL 100.0.
COc1ccc(OC)c(CNS(=O)(=O)N2CCC(C)CC2)c1 was read as total CFTR inactive, total CFTR fold 10 ug/mL 1.05 and total CFTR viability 10 ug/mL 92.0.
Screening CCn1c(=C(C#N)C#N)s/c(=C\c2ccsc2)c1=O returned total CFTR inactive, total CFTR fold 10 ug/mL 0.87 and total CFTR viability 10 ug/mL 92.0.
Screening CCOC(=O)c1c(C)[nH]c(C(=O)COC(=O)c2ccc([N+](=O)[O-])o2)c1C returned total CFTR inactive, total CFTR fold 10 ug/mL 1.02 and total CFTR viability 10 ug/mL 86.0.
For O=C(C1=C(O)C(=O)N(Cc2cccnc2)C1c1cccnc1)c1ccco1 (centres undefined) the results were total CFTR inactive, total CFTR fold 10 ug/mL 1.31 and total CFTR viability 10 ug/mL 109.0.
For O=c1c2ccccc2nc2n1S(=O)(=O)c1ccccc1-2 the results were total CFTR inactive, total CFTR fold 10 ug/mL 0.98 and total CFTR viability 10 ug/mL 104.0.
O=S(=O)(c1ccc(OCCSc2ccc3ccccc3n2)cc1)N1CCOCC1 was read as total CFTR inactive, total CFTR fold 10 ug/mL 1.04 and total CFTR viability 10 ug/mL 91.0.
For Cc1cc(CSc2ncnc3c2cnn3-c2ccccc2)no1 the results were total CFTR inactive, total CFTR fold 10 ug/mL 1.02 and total CFTR viability 10 ug/mL 102.0.
`Cn1ccc(NC(=O)CCNC(=O)C23CC4CC(CC(C4)C2)C3)n1` gave total CFTR inactive, total CFTR fold 10 ug/mL 0.95 and total CFTR viability 10 ug/mL 83.0.
`CCn1c(SCC(=O)c2cc(C)sc2C)nnc1-c1ccco1` gave total CFTR inactive, total CFTR fold 10 ug/mL 1.05 and total CFTR viability 10 ug/mL 79.0.
`O=[N+]([O-])c1cc(S(=O)(=O)N2CCCCC2)ccc1Oc1ccc2c(c1)OCO2` gave total CFTR inactive, total CFTR fold 10 ug/mL 0.88 and total CFTR viability 10 ug/mL 84.0.
`CCCN(Cc1nc2ccsc2c(=O)[nH]1)C(=O)CN1C(=O)NC2(CCCC2)C1=O` gave total CFTR inactive, total CFTR fold 10 ug/mL 0.98 and total CFTR viability 10 ug/mL 100.0.
For Nc1nccnc1C(=O)N1CCN(Cc2nc3sc4c(c3c(=O)[nH]2)CCCC4)CC1 the results were total CFTR inactive, total CFTR fold 10 ug/mL 1.11 and total CFTR viability 10 ug/mL 103.0.
For COc1ccc2ccncc2c1 the results were total CFTR inactive, total CFTR fold 10 ug/mL 1.03 and total CFTR viability 10 ug/mL 103.0.

A portion of the library. The share of hits here may be higher or lower than overall.
